NS1 inh: qHTS Assay for Inhibitors of Influenza NS1 Protein Function | S. cerevisiae slowed by influenza A NS1, growth recovery by OD600 | Potency, µM (titrated, usually from 46.1 µM), for the others: at the top dose activity, positive = more growth | actives 0.4% (n = 270,000) | AID 2326, 2010; active means well fitted rising curve with a large enough effect; inconclusive means small, poorly fitted or top-dose-only effect; inactive means no such curve, though single readings can be large or run the other way; also: nearly all actives have a fitted effect of over 50% in size
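Growth recovery, yeast-based: influenza A NS1 expressed in S. cerevisiae causes slow growth, and suppressors are detected by OD600. The parent strain without NS1 is used as positive control.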
SARS PLpro yeast: qHTS of Yeast-based Assay for SARS-CoV PLP. S. cerevisiae expressing SARS-CoV PLpro, growth rescue; control for the full effect not named in the record. Potency, µM (highest dose often 32.9 µM), inactives show top-dose activity, positive = growth rescue. actives 0.19% (n = 330,000). AID 485353, 2010; active means well fitted rising curve with a large enough effect; inconclusive means small, poorly fitted or top-dose-only effect; inactive means no such curve, though single readings can be large or run the other way; also: 0% is about no effect; nearly all actives have a fitted effect of over 55% in size; growth read by luminescence after 48 h
Lassa entry inh: qHTS for Inhibitors of binding or entry into cells for Lassa Virus. Lassa virus pseudotype entry inhibition, cell reporter; control for the full effect not named in the record. Potency, µM (top dose mostly 37.9 µM), inactives show at the highest dose activity change, negative = inhibition, hits mostly inhibitors. actives 1.2% (n = 300,000). AID 540256, 2011; active means well fitted inhibition curve with a large enough effect; inconclusive means small, poorly fitted or top-dose-only effect, or effect the other way; inactive means flat fitted curve, though single readings scatter; tested in HEK293 cells; also: % is scaled to controls: 0 for no effect and ±100 for the full control effect; nearly all actives have a fitted effect of over 50% in size; luciferase read-out
Cruzain inh noDet: qHTS Assay for Promiscuous and Specific Inhibitors of Cruzain (without detergent); Potency, µM, for the others: max response, negative = inhibition, most hits filed as inhibitors; AID 1476, 2009; purified cruzain, Z-FR-AMC fluorescence, no detergent; actives 2.3% (n = 200,000); Cruzipain (Trypanosoma cruzi), P25779;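 also: plate controls were enzyme without inhibitor for no effect and buffer without enzyme for full effect; nearly all actives have a fitted effect of over 40% in size; top concentration of the series not given in the record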
Target sequence (P25779 123-467 limits assumed): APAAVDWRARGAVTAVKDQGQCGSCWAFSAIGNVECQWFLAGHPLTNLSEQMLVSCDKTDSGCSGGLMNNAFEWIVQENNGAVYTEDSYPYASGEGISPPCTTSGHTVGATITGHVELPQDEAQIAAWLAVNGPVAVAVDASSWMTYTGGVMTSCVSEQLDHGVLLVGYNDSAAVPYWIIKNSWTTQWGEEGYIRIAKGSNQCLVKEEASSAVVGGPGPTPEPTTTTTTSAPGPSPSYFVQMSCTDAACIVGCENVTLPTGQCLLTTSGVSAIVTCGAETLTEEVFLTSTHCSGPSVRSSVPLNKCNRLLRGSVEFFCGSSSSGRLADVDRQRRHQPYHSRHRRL
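Detergent-free condition (0.00005% Triton X-100) in acetate buffer pH 5.5 with DTT. 1.5 nM enzyme and compound were pre-mixed 15 min, then 2 uM Z-FR-AMC substrate added; reaction progress from fluorescence change between first and third reads (60 s).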
Cruzain inh Det: qHTS Assay for Promiscuous and Specific Inhibitors of Cruzain (with detergent) | purified cruzain, Z-FR-AMC fluorescence, 0.01% Triton | Potency, µM, for the others: max response, negative = inhibition, actives largely listed as inhibitors | actives 0.43% (n = 200,000) | AID 1478, 2009;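 also: plate controls were neutral wells for no effect and buffer without enzyme for full effect; nearly all actives have a fitted effect of over 40% in size; top concentration of the series not given in the record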
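Purified cruzain (1.5 nM final) was preincubated with compounds for 15 min at room temperature in 100 mM sodium acetate pH 5.5, 5 mM DTT, 0.01% Triton X-100. Reaction started with 2 uM Z-FR-AMC; AMC fluorescence change over 60 s gave activity.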
RE007 growth inh: qHTS Assay for Inhibitors of the HIV-1 protein Vpr; S. pombe RE007 Vpr strain, BacTiter-Glo ATP luminescence, 24 h; control for the full effect not named in the record; Potency, µM (highest dose often 92.2 µM), without a hit: at the highest dose activity change, negative = less growth; actives 0.21% (n = 360,000); AID 651644, 2012; active = well fitted falling curve with a large enough effect; inconclusive = small, poorly fitted or top-dose-only effect; inactive = no such curve, though single readings can be large or run the other way;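 also: % is scaled to controls: 0 for no effect and ±100 for the full control effect; nearly all actives have a fitted effect of over 50% in size; the assay follows cell death caused by Vpr and the record does not say whether a fall means rescue or toxicity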
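Fission yeast strain RE007, carrying one chromosomally integrated HIV-1 vpr copy, was seeded at OD 0.01 in PMG+AL medium with 23 nL pinned compound. After 24 h at 30 °C and 99% humidity, viability was read by BacTiter-Glo luminescence.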
2A StopGo: High Throughput Screening for Foot and Mouth Disease Virus Antivirals | human cells with a luciferase reporter of 2A StopGo recoding; control for the full effect not named in the record | Potency, µM (highest dose often 57.9 µM), without a hit: at the highest dose signal change, negative = less light | actives 1.2% (n = 410,000) | AID 1159524, 2015; active = well fitted falling curve with a large enough effect; inconclusive = small, poorly fitted or top-dose-only effect; inactive = no such curve, though single readings can be large or run the other way; tested in HEK293T cells; also: % is scaled to controls: 0 for no effect and ±100 for the full control effect; nearly all actives have a fitted effect of over 45% in size; luciferase light after 4 h
Marburg entry inh: qHTS for inhibitors of binding or entry into cells for Marburg Virus | Marburg virus pseudotyped entry inhibition, cell reporter; control for the full effect not named in the record; about a third of the inactives were read at about 46 µM | Potency, µM (top dose mostly 37.8 µM), for inactives: top-dose activity change, negative = inhibition, most hits filed as inhibitors | actives 1.8% (n = 300,000) | AID 540276, 2011; active = well fitted inhibition curve with a large enough effect; inconclusive = small, poorly fitted or top-dose-only effect, or effect the other way; inactive = flat fitted curve, though single readings scatter; tested in HEK293 cells; about a fifth of its hits are not listed in these tables; also: % is scaled to controls: 0 for no effect and ±100 for the full control effect; luciferase read-out
Numbers without * were called inactive; u = inconclusive; x = no result given; & = joins results of further samples; [ ] = another dose, or the depositor's remark. Unless noted, calls follow the shape of the dose curve; as a rule, active = well fitted curve in the direction sought with a large enough effect; inconclusive = small, poorly fitted or top-dose-only effect, or another doubt; inactive = no such curve, though single readings can be large; an effect the other way counts as inactive or inconclusive. Potency is read from the fitted curve at half-maximal effect.

Compound	NS1 inh	SARS PLpro yeast	Lassa entry inh	Cruzain inh noDet	Cruzain inh Det	RE007 growth inh	2A StopGo	Marburg entry inh
O=C1CCCC(=O)N1c1ccc(N2CCN(c3ccc([N+](=O)[O-])cc3)CC2)c([N+](=O)[O-])c1	u	10%	2%	u	0.6%	x	x	-2%
COc1ccc(N2C(=O)C3C4C=CC(C4)C3C2=O)nn1 (centres undefined)	6%	2%	21%	1%	-2.6%	0%	4%	10%
CCc1cc2c(=O)c(-c3nc4ccccc4n3C)c(C(C)C)oc2c(CN2CCN(C)CC2)c1O	-1%&0%	12%	-13%	10%	-1.4%	6%	-17%	u
CCCc1cc(C(=O)Nc2sc(C(C)=O)c(C)c2C(=O)OCC)no1	1%	-1%	x	-27%	1.5%	6%	-21%	x
COc1cc(CNC(=O)c2ccc(NC(=O)N3CCCCc4ccccc43)cc2)cc(OC)c1OC	x	x	-25%[46.1 µM]	u	-5.4%	x	-10%	x
COc1ccc(C(=O)N(C)C2CCN(C)CC2)cc1S(=O)(=O)Nc1cc(Cl)ccc1Cl	3%	-1%	x	x	x	-6%	61%[activator]	x
CCOC(=O)c1c(C)[n+](-c2ccc(C)cc2)c(CC)c2cc(OC)c(OC)cc12	4%	0%	x	x	x	0%	-23%	x
O=C(c1ccc([N+](=O)[O-])cc1)N1CCOCC1	x	x	17%[46.1 µM]	x	x	5%	-8%	12%[46.1 µM]
O=C1c2cccc(Cl)c2C(=O)c2c1cccc2N1CCCC1	x	x	26%	x	x	-35%	-25%	3%
CNc1nc2c(C)cccn2c(=O)c1C=NCc1ccccc1	-2%	1%	8%	-1%	-8.3%	18%	-28%	24%
C#CCOCCOCCOCCNc1nc(N2CCN(C(=O)[C@H]([C@@H](C)CC)n3cc([C@@H](N)CO)nn3)CC2)nc(N2CCN(C(=O)[C@H](Cc3ccc(O)cc3)n3cc([C@@H](N)CC(C)C)nn3)CC2)n1	-1%	-1%	x	x	x	3%	-2%	x
CNc1ccc2nc3ccccc3[n+](C)c2c1	0%	-5%	x	x	x	u	-17%	x
CCOC(=O)N1CCN(C(=O)c2cc(OCC)c(OCC)c(OCC)c2)CC1	2%	1%	x	x	x	13%	-3%	x
Cc1nn(-c2ccccc2)c(NC(=O)c2cccs2)c(-c2ccccc2Cl)c1=O	2%	0%	-12%	x	x	22%	-9%	18%
Cn1cnc2cc(NCc3ccc(Cl)cc3)ccc21	4%	-2%	x	x	x	-5%	35%[activator]	x
CCOc1cc(CNC(=O)NC2COc3ccc(OC)cc3C2)cc(OCC)c1OCC (centres undefined)	x	x	0%[46.1 µM]	u	3.1%	x	-10%	x
COc1cccc(OC)c1C(=O)Nc1ccc(S(=O)(=O)Nc2ncccn2)cc1	-46%	-3%	x	x	x	-1%	-11%	x
O=C(COc1ccccc1)Nc1nnc(-c2ccc(Cl)cc2)o1	-65%	-3%	u	x	x	-5%	-12%	21%
COCCN1Cc2cccc(C(=O)Nc3cccc(-c4nc5ccccc5[nH]4)c3)c2C1=O	5%	-8%	u	x	x	-3%	-12%	u
CSCCC(NC(=O)c1ccccc1Cl)C(=O)N1CCN(C(c2ccccc2)c2ccccc2)CC1 (centres undefined)	-1%	7%	u	x	x	-10%	-6%	u
Cc1cc(C(=O)NNC(=O)CCC2CCCCC2)c(C)o1	1%	0%	x	x	x	3%	-2%	x
COc1ccccc1NC(=O)COC(=O)COc1cccc2c1OC(C)(C)C2	x	x	0%	x	x	3%	-9%	-1%[46.1 µM]
CCc1sc(C(=O)N2CCc3ccccc32)cc1C	x	-20%	u	x	x	-25%	4%	u
Cc1ccc2c(c1)N(CC(=O)N1CCCCC1C)C(=O)CO2 (centres undefined)	4%	2%	-4%	x	x	-10%	-24%	6%[46.1 µM]
O=C(Cn1c(=S)[nH]c2ccccc2c1=O)N1CCC2(CC1)OCCO2	7%	6%	1%	3%	-0.5%	-1%	-3%	1%
O=C1CCC(=O)N1c1ccc(NCCc2cccc(F)c2)c([N+](=O)[O-])c1	x	0%	-16%	x	x	-18%	6%	17%[46.1 µM]
CC(C)C(=O)N1CCC(n2nccc2NC(=O)CCc2ccccc2)CC1	-7%	2%	x	x	x	1%	0%	x
C[N+](C)(C)CC1CCCC1=O (centres undefined)	x	x	7%	x	x	-4%	-4%	14%
CC1(C)CC(=O)C2=C(C1)N(c1cccc(O)c1)C1=C(C2)C(=O)CC(C)(C)C1	0%	2%	u	1%	1.5%	5%	-10%	14%&-1%
CN(C1=C(N2CCOCC2)C(=O)c2ccccc2C1=O)c1ccccc1	-15%	-3%	u	-3%	-2.9%	u	0%	-20%
Nc1[nH]nc2ncc3cc4ccccc4nc3c12	7%	1%	0%	x	x	3%	10%	-13%[46.1 µM]
O=S(=O)(/N=C/c1c(O)ccc2ccccc12)c1cccs1	0%	2%	x	-9%	2.0%	x	x	-4%
CCOc1ccccc1CN1CCN(CCCc2ccccc2)CC1CCO (centres undefined)	2%	-1%	x	x	x	1%	-28%	x
COc1ccc(CC(=O)N2N=C(C)CC2(O)c2cccnc2)cc1OC (centres undefined)	1%	-6%	-10%	-1%	-1.8%	3%	-23%	-4%
COc1ccc2nc(NC(=O)c3nc(SC(C)C)ncc3Cl)sc2c1	x	x	17%[46.1 µM]	9%	0.3%	x	-17%	u
COc1ccc(C(=O)NCCOc2cccc(OC)c2)cc1	-3%	-2%	x	x	x	-8%	26%	x
CCCCOC(=O)Nc1nnc(COc2ccccc2)s1	-11%	-1%	-9%	2%	0.8%	-18%	13%	14%
Cc1cccc(-n2c(SC(C)C(=O)O)nc3sc4c(c3c2=O)CCCC4)c1 (centres undefined)	3%	1%	x	x	x	-7%	-21%	x
CCc1cc2c(=O)c(-c3cscn3)coc2c(CN(C)C)c1O	6%	-16%	-9%	-7%	-1.7%	14%	0%	-11%
C=CCN(c1ccc(C(=O)NCCCn2ccnc2)cc1)S(C)(=O)=O	-3%	23%	2%[46.1 µM]	x	x	16%	1%	-1%[46.1 µM]
Cn1c(=O)oc2cc(S(=O)(=O)Nc3ccccc3)ccc21	0%	0%	-1%	x	x	5%	-4%	7%[46.1 µM]
c1ccc(OCCCCN2CCCCC2)cc1	8%	-7%	u	x	x	11%	-6%	19%
C/C(CCC(C)C)=N\NC(=O)COc1ccccc1-c1ccccc1	x	-5%	u	x	x	4%	-10%	u
CS(=O)(=O)c1ccc(C(=O)NCCN2C(=O)S/C(=C\c3cccnc3)C2=O)cc1[N+](=O)[O-]	6%	1%	21µM*	x	x	-2%	28µM*	10µM*
CCCN(CC(=O)Nc1ccccc1C)C(=O)C1CCN(c2ncnc3sc(C)c(C)c23)CC1	x	-6%	u	x	x	-5%	u	u
Cc1ccc(C)c(NC(=S)NC(NC(=O)N(C)C)C(Cl)(Cl)Cl)c1 (centres undefined)	13%	-9%	-5%	-6%	6.2%	-16%	x	8%
CCOc1ccccc1C(=O)N(Cc1ccco1)Cc1ccco1	x	x	5%[46.1 µM]	6%	-1.2%	x	-11%	-10%[46.1 µM]
CN1CCN(c2ccc(NC(=O)c3ccco3)cc2Cl)CC1	1%	-2%	x	x	x	-1%	21%	x
O=C(CCNS(=O)(=O)c1ccccc1C(F)(F)F)N1CCN(S(=O)(=O)c2cccc(F)c2)CC1	x	x	-10%	x	x	-1%	-19%	-14%[46.1 µM]
COc1nccnc1NS(=O)(=O)c1ccc(N=Cc2c(C)[nH]n(-c3ccc(Cl)cc3)c2=O)cc1	-2%	-7%	0%	u	-10%	x	x	0%
CC(OC(=O)c1nn(C)c(=O)c2ccccc12)C(=O)NC1CCCCC1C (centres undefined)	x	1%	u	x	x	3%	-10%	1%
COc1ccc(C(=O)/C=C2/C(=O)Nc3ccccc32)cc1	-73%	-11%	x	x	x	-10%	3.2µM*	x
Cc1ccc(NC(=S)NC(NC(=O)c2ccco2)C(Cl)(Cl)Cl)cc1 (centres undefined)	1%	0%	2%	15%	4.5µM*	4%	-15%	u
CCCn1nnnc1NCc1ccc(OC)cc1	5%	2%	x	x	x	-4%	7%	x
COC(=O)C1=C(N)OC2=C(C(=O)CC(C)(C)C2)C1c1ccoc1 (centres undefined)	-2%	2%	-19%	8%	0.8%	3%	7%	20%
CCc1ccccc1NC(=O)CNC(=O)CCc1nc2sc3c(c2c(=O)[nH]1)CCCC3	x	1%	3%[46.1 µM]	x	x	21%	-6%	0%
O=C1COc2ccc(C(=O)CSc3ccccc3C(=O)O)cc2N1	4%	-1%	x	x	x	4%	-14%	x
Cn1c(/C=C/c2ccccc2)nc2ccccc21	-49%	-5%	x	x	x	u	-81%	x
COc1ccc(C)cc1NC(=O)c1cc2c(=O)n(Cc3cccnc3)ccc2nc1C	x	x	16%[46.1 µM]	2%	-4.5%	x	-24%	x
C=CCN=C1S/C(=C\c2ccc(N(C)C)cc2)C(=O)N1CC=C	-2%	0%	-21%[46.1 µM]	x	x	-27%	14%	u

Next part:
Compound	NS1 inh	SARS PLpro yeast	Lassa entry inh	Cruzain inh noDet	Cruzain inh Det	RE007 growth inh	2A StopGo	Marburg entry inh
C#C[C@]1(O)CC[C@H]2[C@@H]3CCC4=CC(=O)CC[C@]4(C)[C@H]3CC[C@@]21C	1%	-1%	2%	-13%	0.1%	10%	-5%&-12%	-1%
COc1ccc(/C=C/C(=O)NC(=S)NNC(=O)c2ccco2)cc1OC	2%	1%	x	x	x	7%	-14%	x
N#CC(C#N)=Cc1ccc(NC(=O)c2ccc(Br)cc2)cc1	-45%	-3%	5%	x	x	-21%	11%	1%[46.1 µM]
CO/N=C\CC(=O)Nc1ccc(Cl)cc1Cl	-2%	0%	-24%	x	x	10%	25%	u

Assay outcomes as filed in PubChem.
